Assay outcomes as filed in PubChem.
Env fusion inh: inhibitors of HIV Env-mediated cell fusion; HeLa-JRFL Env/CEM21 cell fusion, luciferase; inhibition, % at 12.3 µM; hit rate 1.1% among 360,000; AID 651610;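 active = mean replicate inhibition score of at least 50 and every replicate individually at or above 50; inconclusive = only one of the two criteria met; inactive = mean below 50 and not all replicates reaching 50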;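 note: 0% = plate neutral controls and 100% = maraviroc near 300 nM; one replicate is shown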
MT1-MMP act inh: inhibitors of human MT1-MMP activation; P50281; HT1080 RFP-PRO-GFP cells, GFP/RFP ratio fluorescence, overnight; percent of plate control window, DMSO zero; GFP/RFP ratio change, % at 20 µM; hit rate 0.061% among 360,000; AID 651647;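 active = GFP/RFP ratio change of at least 30% with cell ATP level not reduced by more than half and red fluorescence within 50% of control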; note: strong numbers were not always called active
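Assay system: HT1080 RFP-PRO-GFP cells | Dosing: 20 µM single dose, 1% DMSO | Incubation: Cells overnight before dosing, compound overnight, 37 °C, 5% CO2 | Evaluation: GFP/RFP fluorescence ratio | Control set: DMSO-only wells and HT1080 RFP-L50D-GFP cell wells as references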
Rce1 inh: inhibitors of yeast Ras-converting enzyme. Q03530. yeast membranes, quenched prenylated peptide cleavage fluorescence. calls only. hit rate 0.27% among 290,000. AID 2563;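 active = fall in fluorescence gain of 50% or more versus controls, with final raw signal at or below 3038400; inconclusive = same 50% fall but final raw signal above 3038400; inactive = fall in fluorescence gain under 50%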;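 note: plate controls were neutral control wells for no effect and wells lacking membranes for full effect; tested at 10 µM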
CSC inhib: cancer stem cell inhibition; inhibition, % at 7.5 µM; cancer stem cell-like cells viability, luminescence; AID 2717; hit rate 1.1% among 300,000;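 active = mean at 75% or more and at least half the replicates too; inconclusive = mean and replicates disagree; tested in HMLE shEcad cells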;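 note: 0% = median of negative and 100% = median of positive control wells; the first replicate is given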
PABP polyA inh: blocks human PABP binding to poly(A) RNA; P11940; fluorescence polarization; inhibition, % at 35 µM; hit rate 1% among 290,000;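 active = 50% or more with normal probe brightness, or confirmed in later tests; inconclusive = above 50% with abnormal brightness, or retests that disagree; inactive = below 50% or failed in later tests; about a fifth of its hits are not listed in these tables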;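 note: calls also rest on retests at 20 µM and on dose response follow-up; controls were probe without protein and protein plus probe with vehicle; some compounds called inactive have numbers as strong as hits; many hits fall short of the cut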
Target sequence (P11940 whole entry, looked up): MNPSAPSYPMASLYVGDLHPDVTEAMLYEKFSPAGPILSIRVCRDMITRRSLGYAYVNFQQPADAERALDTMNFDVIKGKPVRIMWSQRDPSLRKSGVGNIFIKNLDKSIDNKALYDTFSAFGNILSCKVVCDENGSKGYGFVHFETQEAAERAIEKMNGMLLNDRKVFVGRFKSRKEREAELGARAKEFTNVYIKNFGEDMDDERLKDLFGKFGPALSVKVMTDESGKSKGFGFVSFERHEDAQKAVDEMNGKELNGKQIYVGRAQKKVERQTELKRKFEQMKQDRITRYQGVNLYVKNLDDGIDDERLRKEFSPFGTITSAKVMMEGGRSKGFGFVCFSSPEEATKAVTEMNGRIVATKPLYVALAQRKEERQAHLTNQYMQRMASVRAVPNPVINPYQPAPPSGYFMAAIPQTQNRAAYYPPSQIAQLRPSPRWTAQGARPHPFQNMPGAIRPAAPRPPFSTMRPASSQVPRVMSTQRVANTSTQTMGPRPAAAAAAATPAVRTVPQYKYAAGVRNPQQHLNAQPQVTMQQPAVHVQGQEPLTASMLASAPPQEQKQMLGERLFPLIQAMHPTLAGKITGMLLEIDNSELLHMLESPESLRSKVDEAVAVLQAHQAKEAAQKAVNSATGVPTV
Yeast UUG start: yeast start codon fidelity modulation | activity score, % at 18.7 µM | hit rate 0.13% among 350,000 | S. cerevisiae UUG-firefly luciferase reporter, luminescence/redox ratio;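 active = replicate mean at a twofold rise or more, about +100% in these data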;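 note: firefly luciferase made from a UUG start codon reports start codon fidelity; reporter light over untreated wells divided by growth signal over untreated wells; some hits fall short of that in this replicate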
eIF4H FP inh: inhibitors of RNA binding by human eIF4H | eIF4H fluorescence polarization binding assay | inhibition, % at 35 µM | hit rate 0.94% among 290,000;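 active = 50% or more with normal probe brightness, or confirmed in later tests; inconclusive = above 50% with abnormal brightness, or retests that disagree; inactive = below 50% or failed in later tests; about a fifth of its hits are not listed in these tables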;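 note: calls also rest on retests at 20 µM and on dose response follow-up; 0% = protein and probe with vehicle and 100% = probe without protein; strong numbers were not always called active; many hits fall short of the cut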
MT1-MMP act inh RFP: recorded beside MT1-MMP act inh, whose call it bears; RFP signal change, %; measured here: RFP expression control read;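 0 = vehicle wells; hits needed this value within 50% of zero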
Starred values were filed as active, the others as inactive; i = inactive; ? = inconclusive; nt = not tested or not shown; & = joins results of further samples; [ ] = another dose, or the depositor's remark. The list is partial. The share of hits here may be higher or lower than overall.

SMILES	Env fusion inh	MT1-MMP act inh	MT1-MMP act inh RFP	Rce1 inh	CSC inhib	PABP polyA inh	Yeast UUG start	eIF4H FP inh
CCCCOc1cccc(C(=O)N(Cc2cccs2)C2CCS(=O)(=O)C2)c1 (stereo not given)	nt	2	-3	i	4	6	-1	0
O=C(NCCCN1CCOCC1)c1cccc(S(=O)(=O)Nc2ccc(F)cc2)c1	nt	1	0	nt	-12	nt	-7	nt
FC(F)(F)c1nnc2ccc(Cl)nn12	-3	-1	1	i	12	3	nt	4
CCN(CC)CCN1C(=O)C(=O)/C(=C(/O)c2ccc3c(c2)CC(C)O3)C1c1ccc(OC)cc1 (stereo not given)	-1	-2	-1	i	0	-1	nt	-1
COc1cc(/C=N/Nc2nncn2N)ccc1OCc1c(C)no[n+]1[O-]	-32	0	4	i	8	2	-17	1
Cc1ccc2cn[nH]c2c1N	2	-2	4	i	-7	8	nt	13
CCc1c(C)nc(N2CCN(Cc3ccc4c(c3)OCO4)CC2)[nH]c1=O	8	3	-2	i	-8	0	-29	-9
C/C(=N\N=C1\NC(=O)CC(C(=O)O)S1)c1cccs1 (stereo not given)	-35	1	5	i	-6	5	-17	-6
Cc1ccc(-n2ncc3c(=O)n(CC(=O)N4CCN(c5ccccc5)CC4)cnc32)cc1C	-35	-1	0	i	-4	4	nt	0
Clc1ccc(OCc2nn[nH]n2)cc1	12	1	3	i	-7	17	-10	-2
Cn1ncc([N+](=O)[O-])c1C(=O)n1nnc2ccccc21	-5	-1	0	nt	nt	0	nt	-19
CCOC(=O)C1=CCN(S(=O)(=O)c2ccc(F)cc2)C1c1cccc(Cl)c1 (stereo not given)	16	3	0	nt	nt	nt	-4	nt
NC(=O)NOCc1ccccc1F	10	0	-2	i	6	5	-8	-8
CCN(CC)CCCNC1CCS(=O)(=O)C1 (stereo not given)	-44	0	5	i	-7	37	-18	2
CC(C)c1ccc(C(=O)N(c2ccccn2)C(C)c2ccco2)cc1 (stereo not given)	-87	20	52	i	8	-7	-16	-10
Cc1cccc2c(N)c3c(nc12)N(C)CC3	-9	-1	-1	?	-12	8	2	21
COc1ccc(C[C@H]2CN3C(=NC[C@@H]3Cc3ccccc3)N2C[C@H](C)NC(=O)CCC2CCCCC2)cc1	nt	nt	nt	i	nt	-6	nt	-6
N#C/C(=C\c1ccc(OCC(N)=O)cc1)C(=O)NC1CC1	nt	-2	3	i	-5	-7	-6	1
O=C(CCN1C(=O)C2CCCCC2C1=O)Nc1cc(F)ccc1F (stereo not given)	-2	3	5	i	-12	2	-20	-3
COc1ccc(C(C)=O)cc1Cn1c(C)c(C(=O)NCc2ccc3c(c2)OCO3)sc1=O	-14	0	3	nt	nt	nt	-17	nt
O=c1[nH]c(C2C3CC4CC(C3)CC2C4)nc2ccccc12 (stereo not given)	nt	-4	-8	i	10	-1	nt	-7
Cc1ccc(CNC(=O)Cn2cc(C(F)(F)F)ccc2=O)cc1	-13	1	1	i	-14	4	nt	4
Cc1ccc(-c2ccc3c(c2)O[C@H](CN(C)C(=O)CC2CC2)[C@H](C)CN([C@@H](C)CO)S3(=O)=O)cc1	-5	1	7	nt	nt	nt	-4&9	nt
O=C(Nc1ccc(-c2cscn2)cc1)C1CCCN(Cc2ccc(CO)o2)C1 (stereo not given)	2	0	-2	i	-11	-7	-15	4
CCOC(=O)c1nc(C)n(-c2cc(Cl)cc(Cl)c2)n1	-61	2	4	i	-1	1	-7	4
O=C(NCC(=O)N1CCN(c2cccc(Cl)c2)CC1)c1ccc(Br)o1	-12	1	-1	i	-1	nt	6	nt
CCOC(=O)C1=C(N)N2C(=O)C(C)SC2=C(C(=O)OCC)C1c1ccc(O)cc1 (stereo not given)	-14	1	3	i	-17	4	nt	-5
Cc1cccc(C(=O)N2[C@@H](C(C)C)COc3cc(Br)ccc3S2(=O)=O)c1	13	-1	3	nt	nt	nt	-10	nt
O=C(CSc1nnc(CNc2ccc(F)cc2)n1Cc1ccco1)NC1CC1	-20	-10	-9	i	-16	10	-6	2
COc1ccc(CNC(=O)CN(Cc2ccc(OC)cc2)C(=O)CCC(=O)Nc2nccs2)cc1	10	-1	-1	i	nt	-4	-11	-12
NS(=O)(=O)c1ccc(Nc2nc(-c3ccc(O)cc3O)cs2)cc1	nt	5	-5	nt	8	20	nt	2
Cc1nnc(C)c2c(C)n(-c3ccccc3N)c(C)c12	4	-7	1	i	6	35	-1	46
CCOC(=O)Cn1c(=O)c2c(nc3n2CC(C)CN3Cc2ccccc2)n(C)c1=O (stereo not given)	7	3	-1	i	0	2	-5	0
C[C@@H]1CN([C@H](C)CO)C(=O)CCCn2nncc2CO[C@H]1CN(C)C(=O)Nc1ccc(N2CCCCC2)cc1	-1[16.7 µM]	5	10	nt	nt	nt	-15&2	nt
COc1cc(NC(=O)c2cc3c(C)nc4ccccc4c3o2)cc(OC)c1OC	22	13	-4	i	1	-8	-5	-3
O=C(NCCN1C(=O)S/C(=C\c2ccc(Cl)cc2)C1=O)C1=COCCO1	-7	6	1	nt	-6	nt	0	nt
CCOc1ccc(N2C(=O)c3cccnc3C2Nc2ccc(F)cc2)cc1 (stereo not given)	-17	-1	2	i	-8	-6	-16	14
COc1ccc(NC(=O)NC2CCCc3ccccc32)cc1 (stereo not given)	-5	1	1	i	3	-7	2	-3
O=C(Cc1ccccc1)N/N=C/c1cc(Br)cs1	-27	0	-1	i	1	8	-7	-14
CCc1c(C(=O)Nc2cc(C)ccc2OC)[nH]c(C)c1C(C)=O	-100	-5	-5	i	-5	11	-3	-5
COc1ccc(CCC(=O)Nc2cc3c4c(c2)CCC(=O)N4CCC3)cc1	-14	5	-2	i	2	nt	-6	nt
CCOC(=O)CC1=C(C#N)C(c2cccnc2)C(C(=O)OCC)=C(N)O1 (stereo not given)	nt	-9	8	i	-2	?	-7	?
CCCCNC(=S)N1CCN(C)CC1	-4	0	2	i	0	-1	nt	43
O=C(O)c1cccc(NC(=S)N/N=C/c2cccc(O)c2)c1	38	0	1	i	-7	3	nt	25
COc1ccc(C(=O)NC(=S)NNC(=O)c2cccnc2)cc1	2	5	12	i	10	4	-30	14
CC1CCCN(CCCNC(=O)c2ccc3c(c2)N(Cc2ccc(F)cc2)C(=O)c2ccccc2S3=O)C1 (stereo not given)	1	-1	-1	i	3	1	-20	-13
Cc1cc(C)c(C(=O)NC2CCCc3c2cnn3-c2cccc(C)c2C)o1 (stereo not given)	nt	7	-8	i	23	-9	-7	-6
CCc1ccc(CN(C(=O)c2cc3ccccc3oc2=O)C2CCS(=O)(=O)C2)cc1 (stereo not given)	-178	1	5	i	-1	13	-15	6
Cc1ccc(/C=C/C(=O)N2CCC(Cc3ccccc3)CC2)cc1	7	3	3	i	66	20	nt	-16
Cc1ccc(-n2c(SCC(=O)NCCN3C(=O)CSC3=O)nnc2-c2ccccc2)cc1C	10	0	0	i	0	-15	nt	0
NS(=O)(=O)c1ccc(CNC(=O)c2cc(=O)[nH]c3ccccc23)cc1	3	-2	5	nt	-14	2	-13	1
Cc1cc(NC(=O)Cn2ccc([N+](=O)[O-])n2)no1	-6	-6	-3	i	-8	2	nt	-8
COC(=O)c1ccc(CSc2nc3cc(Cl)ccc3o2)cc1	-12	-3	-1	i	nt	-4	-24	-12
Cn1c(=O)c2c(nc(NCC3CCCC(CN)C3)n2Cc2ccc(Cl)cc2Cl)n(C)c1=O (stereo not given)	11	-23	-9	i	47	-22	5	-3
CCc1nnc(N/N=C/c2cc(C)c(C)cc2C)n1N	13	2	2	i	-5	-3	-1	-11
CC(=O)NS(=O)(=O)c1ccc(NC(=O)c2ccc(-n3nc(C)cc3C)cc2)cc1	-10	-4	-4	i	-6	-8	2	5
CCOC(=O)N1CCN(C(=O)Nc2ccccc2Cl)CC1	nt	-5	-1	i	-4	6	-14	-12
Cc1cc(N2CCN(c3cccc(C)c3C)CC2)nc(-c2ccccc2)n1	nt	8	-11	i	-3	-3	-25	-1
O=C(N/N=C/c1ccc(Cl)cc1Cl)c1ccc(-n2cnnn2)cc1	nt	1	4	nt	-5	nt	-4	nt
CC(=O)c1cccc(Nc2nc(N3CCOCC3)nc(N3CCOCC3)n2)c1	1	1	2	i	-12	5	19	-5

Among those listed so far, these contain a COOH group.
SMILES	Env fusion inh	MT1-MMP act inh	MT1-MMP act inh RFP	Rce1 inh	CSC inhib	PABP polyA inh	Yeast UUG start	eIF4H FP inh
C/C(=N\N=C1\NC(=O)CC(C(=O)O)S1)c1cccs1 (stereo not given)	-35	1	5	i	-6	5	-17	-6
O=C(O)c1cccc(NC(=S)N/N=C/c2cccc(O)c2)c1	38	0	1	i	-7	3	nt	25

The listing continues:
SMILES	Env fusion inh	MT1-MMP act inh	MT1-MMP act inh RFP	Rce1 inh	CSC inhib	PABP polyA inh	Yeast UUG start	eIF4H FP inh
CCCN(CCC)CCNC(=O)CS(=O)Cc1nc(-c2ccc(C)cc2)oc1C (stereo not given)	-38	7	2	i	-8	-3	nt	4
c1ccc(CSc2ccc(-c3ccc4c(c3)OCO4)nn2)cc1	-111	5	-2	i	-14	-3	-10	-13
CC(=O)Nc1ccc(NC(=O)CCc2ccc(C)o2)cc1	-2	-3	-4	i	-3	-6	-10	-7
COc1ccc(OC)c(-c2cc(-c3cccnc3)nc(N)c2C#N)c1	-65	3	-12	i	76*	-3	-15	3
CCCNC(=O)N1CCC(C(=O)c2cccc(F)c2)CC1	-55	9	3	i	nt	0	7	-13
O=C(O)c1ccccc1C(=O)Nc1cccc([N+](=O)[O-])c1	-13	2	3	i	-9	-1	nt	-7
O=C(/C=C/c1ccc(Cl)cc1Cl)n1cccn1	-31	0	1	i	2	6	-19	-10
CCOC(=O)CSc1c(-c2ccc(Cl)cc2)[nH]c2ccccc12	12	-4	-5	i	-2	0	-9	0
CN(C)Cc1ccc(O)c(CCc2ccccc2)n1	nt	-5	-1	i	-5	15	5	-8
COc1ccc(-n2c(SCC(=O)N(C)C3CCS(=O)(=O)C3)nc3ccc(O)cc3c2=O)cc1OC (stereo not given)	13	-2	1	nt	-11	nt	14	nt
Cc1nc(Br)c(Br)n1Cc1ccccc1	-33	-2	-19	nt	nt	nt	-17	nt
COc1ccc(C2=Nc3ccccc3NC(=O)C2N(CCc2cc(OC)cc(OC)c2)C(C)=O)cc1 (stereo not given)	-10	-2	-2	nt	nt	nt	-13	nt
COC(=O)c1ccccc1NC(=O)C1CC(=O)N(c2ccc(OC)cc2)C1 (stereo not given)	-8	2	2	i	21	-7	7	-6
Cc1ccc(SCC(=O)N2CCN(S(=O)(=O)c3cccs3)CC2)cc1	-2	-3	0	nt	-1	nt	-7	nt
COc1ccc(NC(=O)c2c(C)nn(Cc3ccccc3)c2Cl)cc1S(=O)(=O)N1CCOCC1	11	0	-15	i	0	6	2	2
S=C(NC1CC1)N1CCN(C(=S)NC2CC2)CC1	11	-2	1	i	-9	1	-12	4
CCOCCCn1c(SCC(=O)N(C)C2CCS(=O)(=O)C2)nc2ccccc2c1=O (stereo not given)	6	2	1	i	3	nt	nt	nt
Cc1cc(NC(=O)CSc2nnc3ccc(-c4ccccc4)nn23)no1	-3	2	7	nt	nt	nt	-13	nt
O=C(CCC1CCCN(c2ncccn2)C1)N1CCN(c2ccccn2)CC1 (stereo not given)	-9	1	0	i	-11	14	2	0
CC(C)(C)NC(=O)c1ccc2c(c1)N(CC(=O)N1CCCCC1)C(=O)C(C)(C)O2	3	-5	1	i	53	2	-1	2
